Bioassay records from PubChem.
Sa growth 42C = inhibitors of Staphylococcus aureus growth at 42 °C; S. aureus RN4220 growth, OD600, 20 h; hits give low values; 170,000 compounds, 0.53% hits; relative growth, % (test concentration not listed);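 active means growth at 42 °C up to 50% and 20 or more points under that at 30 °C, or under 10% at both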;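 further: 300 nL library stock went into each well; scaled to the means of positive and negative controls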
HCMV NEC inh = cytomegalovirus nuclear egress complex inhibition | inhibition, % (no concentration beside the values) | 190,000 compounds, 0.15% hits | HTRF UL50-UL53 interaction, normalized percent inhibition | AID 1918969;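 active means both replicates at 50% or more, plus weaker picks with an unusually low signal ratio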;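 further: stock transfer was 100 nL into about 20 µL; 0% = negative control wells and 100% = wells with untagged competitor protein; inactives centre near -12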
GIV-Gai inh = blocks GIV peptide binding to rat Galpha-i3; P08753; percent of control (FP), % (test concentration not listed); AID 1224905; Galpha-i3/FITC-GIV peptide fluorescence polarization, 90 min; hits give low values; scaled: aluminum fluoride 0%, vehicle 100%; 210,000 compounds, 0.42% hits;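 active means replicate mean at 85% of control or lower, very high polarization wells dropped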;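 further: wells of about 15 µL received 100 nL stock; the first replicate is given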
Target sequence (P08753 whole entry, looked up): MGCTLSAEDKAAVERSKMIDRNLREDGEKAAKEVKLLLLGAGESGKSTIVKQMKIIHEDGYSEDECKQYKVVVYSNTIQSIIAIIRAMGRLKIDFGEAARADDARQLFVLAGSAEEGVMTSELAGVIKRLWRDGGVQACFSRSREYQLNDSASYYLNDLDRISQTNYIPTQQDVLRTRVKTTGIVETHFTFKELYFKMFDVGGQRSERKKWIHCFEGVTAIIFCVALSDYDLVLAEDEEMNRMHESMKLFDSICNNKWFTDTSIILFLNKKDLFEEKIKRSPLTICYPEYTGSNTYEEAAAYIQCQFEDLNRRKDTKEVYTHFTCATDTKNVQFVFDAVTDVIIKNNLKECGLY
Sa growth 42C second temp = further read-out of Sa growth 42C, marked with its call; relative growth, %; measured here: growth at 30 °C;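 optical density after 20 h as mean of two plates; 100% = untreated growth and lower means inhibition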
Numbers without * were called inactive; nt = no result given; & = joins results of further samples.

1: CCc1nn(CC(=O)N2CCN(c3cc(C)ccc3C)CC2)c(=O)c2cc3occc3n12
2: CCOc1c(OC)cccc1C1CC(=O)Nc2c1c(C)nn2-c1ccc2nncn2n1 (stereo unspecified)
3: CCOC(=O)N1CCN(C(=O)CSc2ccc(-c3cccs3)nn2)CC1
4: CSc1n[nH]c(-c2ccc(Cl)cc2)n1
5: CCOc1ccc(CNC(=O)C2CCN(c3nn4c(=O)cc(C)nc4s3)CC2)cc1
6: CCc1ccc(-c2ccc(=O)[nH]n2)cc1S(=O)(=O)N(Cc1ccccc1)Cc1ccccc1
7: CN(C)S(=O)(=O)c1ccc2c(c1)N(CC(=O)NCc1cccc(Br)c1)C(=O)CS2
8: CCc1ccc2c(c1)-c1ccccc1S(=O)(=O)N2CC(=O)N(CC)CC
9: Cc1noc(C)c1S(=O)(=O)N(Cc1ccccc1)C(C)C
10: COC(=O)c1ccc2c(c1)C(=O)/C(=C/c1ccc(C)o1)O2

assay / entry	1	2	3	4	5	6	7	8	9	10
Sa growth 42C	103	nt	97	117	104	nt	119	nt	89	109
Sa growth 42C second temp	92	nt	84	92	89	nt	77	nt	84	73
HCMV NEC inh	1	-35	nt	-7&-16	-5	-35	nt	12	-17	nt
GIV-Gai inh	95	100	99	101	103	103	99	101	100	150

11: CCOC(=O)/C(=C\c1cccc2ccccc12)C1=Nn2c(C)nnc2SC1
12: Cc1cccn2c(=O)c(/C=C(\C#N)c3nc4ccccc4s3)c(Oc3ccc(Br)cc3)nc12
13: O=c1ccc2ccc(O)c(O)c2o1
14: Cc1cccc(C)c1NC(=O)Cn1cc(C(=O)c2ccco2)c2ccccc21
15: COc1ccc(NC(=O)C2(N3C(=O)CC3c3ccc(OC(C)C)cc3)CCCCC2)cc1 (stereo unspecified)
16: CCCSc1nnc(-c2ccc(F)cc2)o1
17: O=C(NCCCN1CCCC1=O)c1nnc(-c2ccc3c(c2)OCO3)o1
18: Cc1c(-n2c(SCC(=O)O)nnc2-c2ccccc2Br)c(=O)n(-c2ccccc2)n1C
19: O=C1CN(C(=O)CN2c3ccc(F)cc3-c3ccccc3S2(=O)=O)c2ccccc2N1
20: Cc1ccc(S(=O)(=O)c2cn(Cc3ccccc3)c3cc(N4CCCC4)c(F)cc3c2=O)cc1

assay / entry	11	12	13	14	15	16	17	18	19	20
Sa growth 42C	78	72	nt	80	98	102	98	78	nt	90
Sa growth 42C second temp	93	88	nt	79	84	91	91	95	nt	82
HCMV NEC inh	-11	-21	-40&-32	-39	7	-12	5	-9	-3	nt
GIV-Gai inh	nt	134	105	102	101	100	105	nt	105	102

21: CCOC(=O)c1c(-c2ccccc2)oc2c1cc(OC(=O)c1ccc([N+](=O)[O-])cc1)c1ccccc12
22: CCc1ccc(-n2nc3ccc(NC(=O)COc4ccc(OC)cc4)cc3n2)cc1
23: Cc1ccc(Cc2cn3cc(-c4ccc(F)cc4)nc3s2)cc1
24: NCC(O)CNCCc1ccccc1 (stereo unspecified)
25: NC(=O)Nc1ccc2c(c1)OCO2
26: Cc1nc(SCc2ccccc2Cl)c(C#N)c(C)c1C
27: CC1CCCN(C(=O)CSc2nnc(COc3ccc(Cl)cc3)n2C)C1 (stereo unspecified)
28: CCOc1nc(C)ccc1-c1noc(-c2cccc(C)c2)n1
29: Cc1cc2oc(=O)cc(CN(C)C3CCCCC3)c2cc1C(C)C
30: O=C(Cn1cc(S(=O)(=O)c2ccccc2)c(=O)c2cc(Cl)ccc21)Nc1ccc2c(c1)OCO2

assay / entry	21	22	23	24	25	26	27	28	29	30
Sa growth 42C	nt	93	96	84	73	109	83	87	83	112
Sa growth 42C second temp	nt	89	103	108	80	101	93	87	87	88
HCMV NEC inh	-4	-26	-19	-1	-31	-7	-14	-4	-23	-16
GIV-Gai inh	106	106	108	108	nt	107	96	nt	nt	106

31: CCC(=O)Nc1ccccc1-c1nc2ccccc2n(C(C)C(=O)Nc2ccccc2CC)c1=O (stereo unspecified)
32: CCN[C@@H]1C[C@H](N)[C@@H](O[C@H]2OC(CN)=CC[C@H]2N)[C@H](O)[C@H]1OC1OC[C@](C)(O)[C@H](NC)[C@H]1O (stereo partly specified)
33: Cn1cc2nc(SCc3cccc(Br)c3)n(Cc3ccccc3)c(=O)c2n1
34: Cc1ccc(NC(=O)Cn2c(=O)n(Cc3nc(C)no3)c(=O)c3ccccc32)c(Cl)c1
35: COc1ccc(-c2cc3c(=O)n(CC(=O)NCc4ccc5c(c4)OCO5)ccn3n2)cc1OC
36: O=C(NC1(C(F)(F)F)N=C2SCCN2C1=O)c1ccccc1 (stereo unspecified)
37: Cc1ccc(C(=O)COC(=O)/C=C/c2nc3ccccc3o2)c(C)c1
38: Cc1ccc2nc3c(c(Nc4ccc(C)c(C)c4)c2c1)CCC3
39: CC(=O)Nc1cccc(-n2nnc(SCc3ccccc3)n2)c1
40: CCc1ccc(CNC(=O)C2CCC(=O)N2C2CCCCC2)cc1 (stereo unspecified)

assay / entry	31	32	33	34	35	36	37	38	39	40
Sa growth 42C	nt	83	nt	98	nt	101	75	93	108	102
Sa growth 42C second temp	nt	78	nt	87	nt	96	91	47	92	91
HCMV NEC inh	-40	-29	-17	0	-12	-1	-23	-56	5	-12
GIV-Gai inh	103	nt	106	103&113	104	108	nt	107	104	106

41: CCSc1sc(CN(C)C)cc1/C=N/O
42: COCCSc1nc2c(cnn2CCO)c(=O)[nH]1
43: Cc1nn(CCC(=O)Oc2ccc(Cl)cc2)c(C)c1Cl
44: CCCCNc1ccccc1C(=O)OCc1nc2ccccc2c(=O)n1CC#N
45: Cc1noc(C)c1COC(=O)/C(C#N)=C/c1cc(C)n(-c2ccc(Cl)c(C(F)(F)F)c2)c1C
46: Cc1cc(Nc2ccc(F)c(Cl)c2)nc(NC(=O)C(C)(C)C)n1
47: CNC(=O)COC(=O)c1cc(C)n(-c2ccc(F)cc2)c1C
48: CCC(C)c1ccccc1NC(=O)COC(=O)Cc1ccsc1 (stereo unspecified)
49: COC(=O)C1=C(C)NC2=C(C(=O)c3ccccc32)C1c1cc2c(cc1Cl)OCO2 (stereo unspecified)
50: CCOC(=O)C(Sc1nc2c(c(=O)[nH]1)CCCC2)c1ccccc1 (stereo unspecified)

assay / entry	41	42	43	44	45	46	47	48	49	50
Sa growth 42C	111	nt	92	89	91	112	89	84	102	78
Sa growth 42C second temp	82	nt	90	98	88	92	85	79	106	86
HCMV NEC inh	-26	-14	-14	-14	-5	3	-14	-36	-37	-24
GIV-Gai inh	nt	101	98	nt	nt	100	nt	nt	100	104

51: CCN1C(=O)N(c2ccc(C)c(Cl)c2)S(=O)(=O)c2ccccc21
52: CCN(CC)C(=O)Oc1cc(=O)n2c3c(cccc13)CCC2
53: Cc1cccc(NC(=O)C2CCCN(c3nnc(-n4c(C)ccc4C)s3)C2)c1C (stereo unspecified)
54: C=CCNc1nc(Cl)nc(Cl)n1
55: NC(=O)COC(=O)C1c2ccccc2Oc2ccccc21
56: COc1ccc(C2=NS(=O)(=O)N(C)C(C(=O)Nc3ccc(OC(F)(F)F)cc3)=C2)cc1
57: Cc1ccc(SCc2nc(-c3ccc(C(=O)NCCc4ccc(Cl)cc4)cc3)oc2C)cc1
58: CCOC(=O)N1CCC(NC(=O)CCC(=O)N2CC(C)Oc3ccc(Cl)cc32)CC1 (stereo unspecified)
59: N#CCC(=O)Nc1ccc(C(=O)Nc2cccc(Cl)c2)cc1
60: Cc1oc2cc(OC(=O)N3CCOCC3)ccc2c(=O)c1-c1ccc(Br)cc1

assay / entry	51	52	53	54	55	56	57	58	59	60
Sa growth 42C	87	101	103	94	129	97	108	97	105	106
Sa growth 42C second temp	52	83	91	90	72	80	85	88	93	90
HCMV NEC inh	-21	-9	-10	-5	-15	-2	nt	-6	-32	-15
GIV-Gai inh	100	100	103	96	nt	105	101	103	nt	104

61: O=c1[nH]cc(S(=O)(=O)N(Cc2ccccc2)Cc2ccccc2)c(=O)[nH]1
62: Cc1cccc(-c2nc(CSc3nncn4c3cc3sccc34)c(C)o2)c1
63: CCOC(=O)N1CCC(NC(=O)CN(C)S(=O)(=O)c2ccc3nc(C)sc3c2)CC1
64: CC1=C(C(=O)Nc2ccccc2)C(c2ccc(O)cc2)n2nc(SCc3ccccc3)nc2N1 (stereo unspecified)
65: N#Cc1ccccc1Cn1c(=O)n(CCCC(=O)NCc2ccccc2Cl)c(=O)c2ccccc21
66: O=C(Nc1ccc(C(F)(F)F)cc1)c1cnc2ccccc2n1
67: O=C(NC1CC1)c1c(O)c2cccc3c2n(c1=O)CC3
68: CCOc1ccc(/C(O)=C/C(=O)C(=O)OC)cc1
69: CCC(C)C(=O)N1CCN(c2cccc(Cl)c2)CC1 (stereo unspecified)
70: CCc1ccccc1NC(=O)N1CCN(c2cc(-c3noc(C)n3)ccc2C)CC1

assay / entry	61	62	63	64	65	66	67	68	69	70
Sa growth 42C	104	120	97	127	92	96	98	97	97	107
Sa growth 42C second temp	97	101	99	95	102	89	84	98	94	96
HCMV NEC inh	-2	nt	6	-29	19	-52	-12	nt	0	nt
GIV-Gai inh	104	99	110	103	110	103	102	101	nt	112

The last three compounds of the part above open the next one.
68: CCOc1ccc(/C(O)=C/C(=O)C(=O)OC)cc1
69: CCC(C)C(=O)N1CCN(c2cccc(Cl)c2)CC1 (stereo unspecified)
70: CCc1ccccc1NC(=O)N1CCN(c2cc(-c3noc(C)n3)ccc2C)CC1
71: COc1ccc(NC(=O)CCCc2nc(-c3ccco3)no2)c(OC)c1
72: COc1ccc(NC(=O)CSc2nnc3ccc(C(=O)Nc4ccc(C)cc4)cn23)cc1
73: Clc1ccc(OCCN2CCCC2)c2ccccc12
74: COC(=O)c1ccc(OC(=O)CCn2ccc3ccccc32)cc1
75: Cc1cccc(-n2c(=O)c3c4c(sc3n3cnnc23)CCCC4)c1
76: CCOc1ccc(C(=O)OCC#N)cc1OCC
77: Cc1ccc(CNC(=O)CS(=O)Cc2nc(-c3cccc(C)c3)oc2C)cc1 (stereo unspecified)
78: N#CCSc1nnc(NC(=O)c2ccccc2)s1
79: CC1(C)CC(NC(=O)CC2CCCCC2)CC(C)(C)N1
80: O=S(=O)(c1ccc(Sc2nnc3ccccn23)nc1)N1CCCC1

assay / entry	68	69	70	71	72	73	74	75	76	77	78	79	80
Sa growth 42C	97	97	107	101	nt	88	102	106	86	105	104	104	85
Sa growth 42C second temp	98	94	96	85	nt	87	83	89	91	91	86	84	95
HCMV NEC inh	nt	0	nt	5	-15	-19	-28	-9	-12	-1	-12	-30	-20
GIV-Gai inh	101	nt	112	102	102	106	nt	102	nt	103	103	101	nt

81: COc1ccc(C2C3=C(CC(C)(C)CC3=O)OC3=C2C(=O)CC(C)(C)C3)cc1[N+](=O)[O-]
82: COc1ccc(NC(=O)Nc2ccc(CN3CCCCC3)cc2)cc1
83: Cn1cc(S(=O)(=O)c2ccc(Cl)cc2)c(=O)c2cc(F)c(N3CCCCCC3)cc21
84: COc1cccc(/C=C/C(=O)NCc2csc(-c3ccccc3)n2)c1
85: Cc1cc2ccccc2n1CCNC(=O)c1ccccc1F
86: O=C(Nc1cccc(Cl)c1)c1cc2ccccn2n1
87: O=C(OCCN1C(=O)c2ccccc2C1=O)c1ccccc1O

assay / entry	81	82	83	84	85	86	87
Sa growth 42C	nt	102	106	102	120	nt	99
Sa growth 42C second temp	nt	103	91	97	82	nt	92
HCMV NEC inh	-24	-6	nt	5	-10	-26	-12
GIV-Gai inh	108	101	106	nt	103	106	nt

Some of these compounds in order of count of non-hydrogen atoms, falling.
81: COc1ccc(C2C3=C(CC(C)(C)CC3=O)OC3=C2C(=O)CC(C)(C)C3)cc1[N+](=O)[O-]
80: O=S(=O)(c1ccc(Sc2nnc3ccccn23)nc1)N1CCCC1
87: O=C(OCCN1C(=O)c2ccccc2C1=O)c1ccccc1O
85: Cc1cc2ccccc2n1CCNC(=O)c1ccccc1F
79: CC1(C)CC(NC(=O)CC2CCCCC2)CC(C)(C)N1
86: O=C(Nc1cccc(Cl)c1)c1cc2ccccn2n1

assay / entry	81	80	87	85	79	86
Sa growth 42C	nt	85	99	120	104	nt
Sa growth 42C second temp	nt	95	92	82	84	nt
HCMV NEC inh	-24	-20	-12	-10	-30	-26
GIV-Gai inh	108	nt	nt	103	101	106
